FEN1 inhibitor – blocks human flap endonuclease 1 | P39748 | Potency, µM (top dose mostly 114 µM), for inactives: top-dose activity change, negative = inhibition, actives largely listed as inhibitors | 390,000 tested, 0.35% active | Recombinant FEN1 flap cleavage, fluorescence, 15 min; also: nearly all actives have a fitted effect of over 65% in size
Target sequence (P39748 whole entry, looked up): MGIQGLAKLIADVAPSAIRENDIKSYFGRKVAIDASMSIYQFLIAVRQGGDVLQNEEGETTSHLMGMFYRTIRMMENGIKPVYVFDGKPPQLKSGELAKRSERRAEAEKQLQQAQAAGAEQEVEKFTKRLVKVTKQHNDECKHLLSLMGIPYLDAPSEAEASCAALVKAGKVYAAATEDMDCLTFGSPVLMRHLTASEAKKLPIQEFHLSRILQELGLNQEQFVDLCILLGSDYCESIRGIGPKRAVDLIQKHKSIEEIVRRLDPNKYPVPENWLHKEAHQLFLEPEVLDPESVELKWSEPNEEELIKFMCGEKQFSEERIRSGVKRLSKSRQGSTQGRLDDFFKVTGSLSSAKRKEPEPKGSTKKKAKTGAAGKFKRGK
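Potency values derive from four-parameter Hill fits of normalized qHTS data. The reaction used 10 nM FEN1 preincubated 15 min at room temperature with compound, then 50 nM DNA substrate, read at 0 and 15 min.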
KAT2A inh – inhibitors of human GCN5L2 histone acetyltransferase; GCN5L2 HAT assay, ThioGlo1 CoA-SH fluorescence; AID 504327; Potency, µM (top dose mostly 58.9 µM), without a hit: at the top dose activity change, negative = inhibition, most hits filed as inhibitors; 390,000 tested, 0.21% active
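GCN5L2 (20 nM) in 50mM HEPES pH 7.5, 0.1mM EDTA, 0.01% Tween-20 preincubated 15 min with compounds at room temperature. Reaction started with H3(1-25) 75uM, acetyl-CoA 70uM, ThioGlo1 50uM; CoA-thiol fluorescence (Ex340/Em540) read at 0 and 20 min.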
The depositor's hits bear a star; ? = inconclusive; nt = not tested or not shown; & = joins results of further samples. Calls follow the shape of the dose curve; as a rule, active = well fitted curve in the direction sought with a large enough effect; inconclusive = small, poorly fitted or top-dose-only effect, or another doubt; inactive = no such curve, though single readings can be large; an effect the other way counts as inactive or inconclusive. % is scaled to controls: 0 for no effect and ±100 for the full control effect; potency is read from the fitted curve at half-maximal effect. This is a subset, and most or all hits are left out here.

SMILES	FEN1 inhibitor	KAT2A inh
C=CCn1c(CCNC(=O)c2cccs2)nnc1SCC(=O)Nc1cccc(C(C)=O)c1	-2.4%	-3.0%
CCC(=O)N1c2ccc(S(=O)(=O)NCCc3ccccc3)cc2CC1C (configuration not stated)	-10.8%&-22.2%	-6.3%&-7.2%
CCOc1ccccc1-c1nnc(SCC(=O)Nc2ccccc2)o1	4.9%	-11.5%
CCCCOc1ccc(C(=O)NCCc2sc3nc(-c4ccc(OC)cc4)nn3c2C)cc1	0.9%	-1.6%
c1ccc(-c2cc(-c3nnco3)c3ccccc3n2)nc1	-5.6%	-3.4%
O=C(COc1coc(CN2CCN(c3ccccc3)CC2)cc1=O)NC1CCCCC1	-3.0%	-7.0%
Cc1ccc(OCCOC(=O)C2CCN(S(=O)(=O)c3ccc(C)c(C)c3)CC2)cc1	6.7%	-5.8%
Cc1c([N+](=O)[O-])c([N+](=O)[O-])nn1CC(=O)N1CCOCC1	-9.6%	-3.0%
COC(=O)c1cc2ccsc2n1CC(=O)Nc1ccc(N(C)C)cc1	-16.8%	?
COc1ccc(/C=N\Nc2ccccc2[N+](=O)[O-])c(C(=O)O)c1OC	-7.7%	-7.1%
Cc1cc(=O)oc2cc(OCC(=O)NC3CC(C)(C)NC(C)(C)C3)c(Cl)cc12	?	-5.4%
CC1CC(=O)C2=C(C1)Nc1ccccc1SC2c1ccc(F)cc1 (configuration not stated)	-3.6%	-6.8%
COc1cc(NC(=O)c2cc(C)on2)cc(OC)c1OC	-0.6%	-3.0%
CC(C)N(Cc1nc(-c2ccccc2)no1)C(=O)c1ccc2c(c1)OCO2	-24.3%	-3.9%
COc1ccc(N2CC(NC(=O)CCc3ccccc3)CC2=O)cc1OC (configuration not stated)	-5.3%	-5.9%
COc1ccc(OCC(=O)Nc2cccc(C(C)=O)c2)cc1	3.1%	-0.5%
COc1cccc(NC(=O)CSC(N)=O)c1	-4.5%	-22.6%
COc1cccc(NC(=O)CCC(=O)Nc2cc(OC)c(NC(=O)c3cccs3)cc2OC)c1	0.9%	-6.4%
O=C(COc1ccc(/C=N/NC(=O)c2ccc(O)cc2)cc1)Nc1cccc([N+](=O)[O-])c1	?	?
COCCN1C(=O)C(CC(=O)Nc2ccc(C(=O)O)cc2)SC1=Nc1ccccc1 (configuration not stated)	8.5%	0.3%
CCn1c(=O)c2cc(C(=O)NCCc3ccc(Cl)cc3)sc2c2ccccc21	-1.9%	-0.5%
CC(=O)OC1C(=O)[C@@]2(C)C(O)CC3OC[C@]3(OC(C)=O)C2C(OC(=O)c2ccccc2)[C@]2(O)CC(OC(=O)C(O)C(NC(=O)c3ccccc3)c3ccccc3)C(C)=C1C2(C)C (some centres not stated)	nt	-0.4%
CCC(C)c1ccc(OCc2ccc(C(=O)OC)o2)cc1 (configuration not stated)	-7.7%	-5.2%
NS(=O)(=O)c1ccc(NC(=O)COc2ncnc3c2cnn3-c2ccccc2)cc1	11.1%	0.0%
COc1ccc2c(CNCc3ccco3)c(C(=O)O)n(Cc3ccccc3)c2c1	12.3%	-0.7%
O=C(NNC(=O)C1CCN(c2ncccn2)CC1)c1ccc(Cl)cc1	-7.0%	0.7%
CC(NC(=O)c1ccc2c(c1)OCCO2)c1ccc(S(N)(=O)=O)cc1 (configuration not stated)	11.7%	-1.9%
COc1ccc(C2=Nn3c(nnc3C3CCCCC3)SC2)cc1OC	-0.6%	-6.0%
COCCN(C(=O)CN1CCN(S(=O)(=O)c2ccc(F)cc2)CC1)c1c(N)n(Cc2ccccc2)c(=O)[nH]c1=O	3.0%	-0.5%
CC(=O)c1ccc(N2CCN(C(=O)CCC(=O)Nc3ccc4nc(N5CCN(C)CC5)cc(C)c4c3)CC2)cc1	?	0.8%
COc1cc2c(cc1OC)CN(CC(O)c1ccccc1)CC2 (configuration not stated)	-17.7%	-7.1%
Clc1cccc(-c2nn3c(Cn4cnc5ccccc54)nnc3s2)c1	-8.3%	-0.8%
O=C(CSc1ccccc1)Nc1ccc(N2CCOCC2)cc1	-5.6%	0.8%
NS(=O)(=O)c1ccc(CNC(=O)CSc2ccccc2)cc1	2.1%	-2.8%
Cc1ccc(NC(=O)CN2C(=O)C(c3ccccc3)=NC23CCCCC3)cc1C	-12.0%	-12.6%
COc1ccccc1/C=C/C=N/NC(=O)CCC1C(=O)NN=C1C (configuration not stated)	-1.4%	-11.8%
Cc1ccc(N2C(=O)CSC23C(=O)N(CC(=O)Nc2ccccc2F)c2ccccc23)cc1C (configuration not stated)	6.3%	0.7%
Cc1cc(C)c(NC(=O)CCCN2CCOCC2)c(C)c1	-4.2%	-10.7%
COc1ccc(CNc2nc3ccccc3n2C)c(O)c1	-5.4%	-15.4%
CSc1nnc2ccc(-c3ccc(C)cc3)nn12	13.6%	-4.5%

Individual results from the list.
Result for COc1cc2c(cc1OC)CN(CC(O)c1ccccc1)CC2 (configuration not stated) under FEN1 inhibitor: -17.7%
Result for Clc1cccc(-c2nn3c(Cn4cnc5ccccc54)nnc3s2)c1 under KAT2A inh: -0.8%
Result for COc1ccccc1/C=C/C=N/NC(=O)CCC1C(=O)NN=C1C (configuration not stated) under KAT2A inh: -11.8%
Result for COc1ccc(CNc2nc3ccccc3n2C)c(O)c1 under KAT2A inh: -15.4%
Result for CSc1nnc2ccc(-c3ccc(C)cc3)nn12 under FEN1 inhibitor: 13.6%
Result for Cc1cc(C)c(NC(=O)CCCN2CCOCC2)c(C)c1 under KAT2A inh: -10.7%

Remaining list, next part
SMILES	FEN1 inhibitor	KAT2A inh
O=C(c1cccs1)N1CCN(CCc2ccccc2)CC1	-2.1%	-1.3%
CCOc1ccc(-c2cccc(NS(=O)(=O)c3cc([N+](=O)[O-])ccc3C)c2)nn1	-8.7%	-5.7%
COc1cccc(C2=CC(c3ccccc3F)n3c(nc4ccccc43)N2)c1 (configuration not stated)	12.0%	-6.3%
Cc1sc(NC(=O)c2ccco2)c(C(c2cccnc2)N2CCC(C)CC2)c1C (configuration not stated)	5.7%	-5.6%
C=CCOC(=O)CCCCCCCC	4.0%	-5.6%
C=CC(=O)OCCOCCOCCOCCOC(=O)C=C	7.4%	2.3%
O=C(CCCN1C(=O)C(c2ccccc2)Oc2cccnc21)NCCc1ccc(Cl)cc1 (configuration not stated)	-1.2%	-3.1%
COc1ccc(NC(=O)Nc2ccc3c(c2)CCC3)c(OC)c1	-2.5%	1.3%
CC1CCCCN1CCn1c(=S)[nH]c2cc3c(cc2c1=O)OCO3 (configuration not stated)	5.1%	-6.2%
COc1ccc(CNC(=O)c2ccc(CSc3nc4ccncc4n3Cc3ccccc3F)cc2)cc1	10.1%	-4.5%
N#Cc1ccccc1OCC(=O)Nc1ccc2c(c1)OCCO2	-4.3%	-4.8%
COc1cc(/C=C/C(=O)OCC(=O)N(C)Cc2ccccc2)ccc1O	-6.8%	-8.9%
O=C(C[C@H]1C/C=C\C[C@@H](Cc2ccc(F)cc2)C(=O)OC[C@H]2CCCN2C1=O)NCCO	3.6%	3.9%
CC(NC(=O)c1ccco1)C(=O)OCc1cccc(C(F)(F)F)c1 (configuration not stated)	-3.2%	-0.8%
CN(CC(=O)OCC(=O)NCC(F)(F)F)S(=O)(=O)c1ccc(Cl)cc1	3.3%	-10.5%
COC(=O)[C@]1(C)N[C@H](CN(C)S(=O)(=O)c2ccc(C(C)(C)C)cc2)[C@@H]2C(=O)N(C)C(=O)[C@@H]21	-5.9%	2.6%
COc1ccccc1Cn1c(SCC(=O)C(C)(C)C)nc2ccccc2c1=O	4.6%	-3.1%
CC1Cc2ccccc2N1C(=O)CSc1nc2ccccc2n1CC(=O)N1CCOCC1 (configuration not stated)	-4.9%	2.3%
CCC(=O)N(c1nnc(SCC(=O)NN2C(=O)NC3(CCC(C)CC3)C2=O)s1)C1CC1 (configuration not stated)	0.7%	-1.4%
O=c1c2cccc3c2c(nn1-c1ccccc1)-c1ccccc1-3	8.3%	-6.2%
Cc1cccc(N2CC(C(=O)Nc3nc4ccc(S(C)(=O)=O)cc4s3)CC2=O)c1C (configuration not stated)	1.8%	-2.5%
CC(=O)CCc1ccccc1	-3.1%	-0.4%
Cc1c(OCC(=O)N2CCC(C(=O)NCCCC(=O)O)CC2)ccc2c1oc(=O)c1ccccc12	-6.9%	-10.7%
O=C(CSc1nnc(-c2cccs2)n1Cc1ccccc1)N1CCc2ccccc2C1	1.8%	-0.9%
Cc1ccc(NC2CCCN(C(=O)CCc3cn[nH]c3)C2)cc1C (configuration not stated)	0.4%	-22.7%
O=C(Cn1ncc2ccc(Cl)cc21)NCc1ccc(F)cc1	14.2%	-4.1%
CC(C)CN1C(=O)c2ccc(C(=O)Nc3ccccn3)cc2C1=O	2.5%	-1.2%
CN(c1ccc(OCC(=O)N2CCCCC2)cc1)S(=O)(=O)c1cccs1	-6.4%	-7.0%
CC(C)c1ccc(S(=O)(=O)Nc2ccc(-n3cnnn3)cc2)cc1	-0.3%	-2.8%
COc1ccc(/C=C/c2nc(C#N)c(N3CCC(C(N)=O)CC3)o2)cc1OC	-4.2%	-15.1%
Cc1cc(C)nc(SCCC(=O)Nc2ccccc2)n1	-1.0%	-2.5%
Cc1nn(C)cc1CNC(=O)c1ccc(Br)o1	3.6%	-7.6%
O=C(CCN1CCc2ccccc21)c1ccc2c(c1)OCCO2	-16.8%	-0.8%
O=c1cc[nH]c2c(C(F)(F)F)cccc12	0.3%	-1.4%
O=C(CSc1nnc(CNC(=O)c2ccco2)o1)Nc1ccc(F)cc1	19.4%	-34.7%
CC(C)c1ccc(NC(=O)COC(=O)C2CCCCC2)cc1	-16.3%	-10.1%
O=C(O)CCCC(=O)Nc1ccccc1Oc1ccccc1	-1.0%	1.6%
CCc1cccc(C)c1NC(=O)c1cc(=O)[nH]c2ccc(S(=O)(=O)N3CCOCC3)cc12	-2.6%	2.6%
CC(Sc1nnc2ccccn12)C(=O)Nc1ccc2c(c1)OCCO2 (configuration not stated)	-4.9%	-2.8%
Cc1cccc(-c2nc3scc(CCNS(=O)(=O)c4ccc(Oc5ccccc5)cc4)n3n2)c1	-2.8%	-2.3%

Three records drawn at random from those above:
SMILES	FEN1 inhibitor	KAT2A inh
Cc1cccc(-c2nc3scc(CCNS(=O)(=O)c4ccc(Oc5ccccc5)cc4)n3n2)c1	-2.8%	-2.3%
O=c1cc[nH]c2c(C(F)(F)F)cccc12	0.3%	-1.4%
Cc1cc(C)nc(SCCC(=O)Nc2ccccc2)n1	-1.0%	-2.5%

Additional records follow:
SMILES	FEN1 inhibitor	KAT2A inh
COc1ccc(OC)c(-c2csc(N3CCC(c4ccccc4)CC3)n2)c1	1.1%	-4.2%
COc1ccc(NC(=O)/C=C/c2ccco2)cn1	-11.3%	-19.4%
COC(=O)c1c(CSc2ccc(Cl)cc2)noc1C(=O)NCc1ccco1	-18.0%	0.5%
C/C(Cl)=C\Cn1c(N2CCCCCC2)nc2c1c(=O)n(C)c(=O)n2C	-1.9%	-14.0%
CC1CC(C)CN(C(=O)COC(=O)c2cc(S(=O)(=O)N3CCOCC3)ccc2F)C1 (configuration not stated)	6.3%	-3.7%
O=C(CNC(=O)c1ccc(Cl)cc1Cl)OCC(=O)N1CCCC1=O	-3.3%	-16.9%
CC(C)(C)c1[nH]nc2c1C(c1ccccc1OC(=O)N1CCOCC1)C(C#N)=C(N)O2 (configuration not stated)	-8.8%	-4.1%
Cn1nnc(NC(=S)NC(=O)c2ccccc2)n1	4.1%	-0.7%
COc1ccc(N(C)S(=O)(=O)c2cccc(C(=O)Nc3cc(OC)ccc3OC)c2)cc1	6.1%	-10.4%
CC(Oc1ccc(C(=O)c2ccccc2)cc1)C(=O)N1CCOCC1 (configuration not stated)	3.5%	3.0%
COc1ccc2c(c1)C(C)=CC(C)(C)N2S(=O)(=O)c1ccc(Br)cc1	1.4%	-0.4%
CCOC(=O)/C(=N\Nc1cc(Cl)ccc1Cl)N1CCN(C)CC1	15.2%	-1.8%
COc1ccc(CNC(=O)CSc2nnc(NC(=O)C3CC3)s2)cc1	13.8%	1.8%
Cc1cn2c(nc1=O)OC1CC2OC1CO (configuration not stated)	-1.8%	0.2%
CC(NC(=O)c1ccco1)C(=O)Nc1nccs1 (configuration not stated)	1.3%	-4.2%
Cc1ccc(C(=O)Nc2cccc(C(F)(F)F)c2)cc1NC(=O)c1cnnc2ccccc12	-17.9%	25.1%
Cc1cc(C)cc(NC(=O)Cc2ccc(S(=O)(=O)N3CCCC3)s2)c1	-10.0%	-8.7%
COC(=O)c1ccc(N2CCN(S(=O)(=O)c3ccccc3)CC2)c([N+](=O)[O-])c1	5.7%	-26.4%
CC(CC(=O)Nc1nncs1)c1ccccc1 (configuration not stated)	3.5%	-2.9%
CC1CN(C2CCN(C(=O)c3ccccc3Cl)CC2)CC(C)O1 (configuration not stated)	-3.0%	0.5%
CC(=O)N1CCN(C(=O)c2cc(S(=O)(=O)N(C)Cc3ccccc3)ccc2Cl)CC1	7.3%	0.6%
COc1cc(OC)c2c(-c3cccc(-c4ccc(OC)c(OC)c4)c3)cc(=O)oc2c1	2.5%	-3.6%
O=C(C1CCCO1)N1CCN(C(=S)Nc2ccccc2F)CC1 (configuration not stated)	2.8%	-2.3%
COc1ccccc1-c1ccc(SCc2cccc(C)c2)nn1	-8.7%	-12.0%
O=C(c1ccccc1)N(Cc1ccc(F)cc1)C1CCS(=O)(=O)C1 (configuration not stated)	-16.4%	-0.4%
Cc1ccc(-c2nn(Cc3ccccc3)cc2C(=O)N2CCN(c3ccccn3)CC2)cc1	0.8%	-10.0%

Assay outcomes: PubChem BioAssay, National Center for Advancing Translational Sciences (NCATS)
